PABP FP inh = blocks human PABP binding to poly(A) RNA; P11940; fluorescence polarization; inhibition, % at 35 µM; hit rate 1% among 290,000; AID 2014;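 active = 50% or more with normal probe brightness, or confirmed in later tests; inconclusive = above 50% with abnormal brightness, or retests that disagree; inactive = below 50% or failed in later tests; about a fifth of its hits are not listed in these tables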;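 note: calls also rest on retests at 20 µM and on dose response follow-up; controls were probe without protein and protein plus probe with vehicle; some compounds called inactive have numbers as strong as hits; many hits fall short of the cut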
eIF4H FP inh = inhibitors of RNA binding by human eIF4H. inhibition, % at 35 µM. Q15056. hit rate 0.94% among 290,000. AID 2012. eIF4H fluorescence polarization binding assay;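 active = 50% or more with normal probe brightness, or confirmed in later tests; inconclusive = above 50% with abnormal brightness, or retests that disagree; inactive = below 50% or failed in later tests; about a fifth of its hits are not listed in these tables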;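 note: calls also rest on retests at 20 µM and on dose response follow-up; 0% = protein and probe with vehicle and 100% = probe without protein; strong numbers were not always called active; many hits fall short of the cut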
MT1-MMP act inh = MT1-MMP (human) activation inhibition; HT1080 RFP-PRO-GFP cells, GFP/RFP ratio fluorescence, overnight; percent of plate control window, DMSO zero; hit rate 0.061% among 360,000; GFP/RFP ratio change, % at 20 µM; P50281;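 active = GFP/RFP ratio change of at least 30% with cell ATP level not reduced by more than half and red fluorescence within 50% of control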; note: strong numbers were not always called active
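Assay system: RFP-PRO-GFP reporter HT1080 cells; read-out basis: GFP/RFP fluorescence ratio; benchmarks: DMSO wells and RFP-L50D-GFP cells; doses: 20 µM single dose, 1% DMSO; schedule: overnight cell settling, then overnight compound exposure, 37 °C, 5% CO2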
Env fusion inh = HIV envelope-mediated fusion inhibition; HeLa-JRFL Env/CEM21 cell fusion, luciferase; inhibition, % at 12.3 µM; hit rate 1.1% among 360,000; AID 651610;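 active = mean replicate inhibition score of at least 50 and every replicate individually at or above 50; inconclusive = only one of the two criteria met; inactive = mean below 50 and not all replicates reaching 50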;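 note: 0% = plate neutral controls and 100% = maraviroc near 300 nM; one replicate is shown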
CSC inhib = blocks cancer stem cells; cancer stem cell-like cells viability, luminescence; inhibition, % at 7.5 µM; hit rate 1.1% among 300,000; AID 2717;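 active = mean at 75% or more and at least half the replicates too; inconclusive = mean and replicates disagree; tested in HMLE shEcad cells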;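 note: 0% = median of negative and 100% = median of positive control wells; the first replicate is given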
UUG fidelity = modulators of start codon recognition fidelity in yeast. S. cerevisiae UUG-firefly luciferase reporter, luminescence/redox ratio. activity score, % at 18.7 µM. AID 602363. hit rate 0.13% among 350,000;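 active = replicate mean at a twofold rise or more, about +100% in these data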;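 note: firefly luciferase made from a UUG start codon reports start codon fidelity; reporter light over untreated wells divided by growth signal over untreated wells; some hits fall short of that in this replicate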
Rce1 inhib = inhibitors of yeast Ras-converting enzyme. AID 2563. yeast membranes, quenched prenylated peptide cleavage fluorescence. hit rate 0.27% among 290,000. Q03530. calls only;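 active = fall in fluorescence gain of 50% or more versus controls, with final raw signal at or below 3038400; inconclusive = same 50% fall but final raw signal above 3038400; inactive = fall in fluorescence gain under 50%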;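 note: plate controls were neutral control wells for no effect and wells lacking membranes for full effect; tested at 10 µM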
Target sequence (Q03530 whole entry, looked up): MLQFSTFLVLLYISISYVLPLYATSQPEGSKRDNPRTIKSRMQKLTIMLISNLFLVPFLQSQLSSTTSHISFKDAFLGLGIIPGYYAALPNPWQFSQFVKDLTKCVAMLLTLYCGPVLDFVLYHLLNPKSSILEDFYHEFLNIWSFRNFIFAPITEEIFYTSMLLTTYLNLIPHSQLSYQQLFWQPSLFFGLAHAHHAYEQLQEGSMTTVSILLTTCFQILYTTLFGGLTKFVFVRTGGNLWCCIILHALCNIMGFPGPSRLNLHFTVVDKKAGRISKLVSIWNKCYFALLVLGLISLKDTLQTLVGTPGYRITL
MT1-MMP act inh RFP = further read-out of MT1-MMP act inh, marked with its call; RFP signal change, %; measured here: RFP expression control read;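 0 = vehicle wells; hits needed this value within 50% of zero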
The depositor's hits bear a star; i = inactive; ? = inconclusive; . = no result given; & = joins results of further samples. An excerpt; rates above refer to the full screens.

Every second line gives: PABP FP inh, eIF4H FP inh, MT1-MMP act inh, MT1-MMP act inh RFP, Env fusion inh, CSC inhib, UUG fidelity, Rce1 inhib
- COCCN1C(=O)N[C@@H](c2ccc(Br)cc2)C(C(=O)OC)=C1C
→ 11.9, 0.1, ., ., ., -3.1, ., i
- CCc1nn2cc(C(=O)c3cc(Cl)ccc3O)cnc2c1-c1ccc(F)cc1
→ 1.8, -9.2, -3.5, -21.8, -11.9, 7.2, ., i
- CN(C)CCCNC(=O)c1ccc(Cl)c(S(=O)(=O)N(C)c2ccccc2)c1
→ -6.4, 0.7, -0.7, -0.5, -55.6, -12.1, -11.4, i
- O=C(COc1ccc(F)cc1)Nc1cc(S(=O)(=O)N2CCCCC2)ccc1N1CCCCC1
→ ., ., -4.0, -15.1, 8.8, 36.7, 28.5, i
- CN(CC(=O)Nc1ccccc1C(=O)NC1CC1)Cc1cccs1
→ ., ., -0.9, 1.1, ., -15.7, -16.8, .
- CCOc1ccc(C(=O)NCc2ccccn2)cc1
→ 4.8, 9.1, 12.8, 6.3, ., -4.4, -13.1, i
- O=[N+]([O-])c1ccc(-c2csc(N3CCCCCC3)n2)cc1
→ 11.3, -1.0, -3.8, -5.2, -13.9, 3.9, -0.9, i
- Fc1cccc(Cl)c1CSc1ncn[nH]1
→ -5.9, -9.3, 0.7, -1.0, -58.5, -4.7, -15.4, i
- Cc1ccc(S(=O)(=O)N(C)c2nc3ccccc3n3c(C(C)C)nnc23)cc1
→ ?, ?, -13.4, 5.8, -4.1, -6.9, -14.7, i
- C[C@@H]1CN([C@@H](C)CO)C(=O)CCCn2nncc2CO[C@@H]1CN(C)C(=O)c1ccc2ccn(C)c2c1
→ ., ., 3.9, 3.1, 4.0, ., -12.1&-11.8&12.4, .
- Cc1cccc(NC(=O)C2CC(=O)n3ncnc3N2)c1 (centres undefined)
→ -7.0, -3.8, 2.5, -2.1, 21.3, -8.6, -12.7, i
- COc1ccccc1N(CC(=O)N/N=C/c1c(O)ccc2ccccc12)S(C)(=O)=O
→ -6.7, -2.2, -9.6, -10.5, 2.7, 24.7, ., i
- O=C(NCCCN1CCCC1=O)C(=O)Nc1cccc(F)c1
→ ., ., 3.5, 3.8, -25.5, -1.1, -22.4, i
- COc1ccc(C(=O)N/C(=C\c2ccco2)C(=O)NCc2ccco2)cc1
→ 2.4, -17.4, -3.2, 1.0, 4.4, 2.0, -14.6, i
- CCCNS(=O)(=O)c1ccc(OCC(=O)NCc2ccc3c(c2)OCO3)cc1
→ -4.1, 2.3, 6.1, 0.6, -49.7, ., 12.5, i
- C=CCn1c(C)cc(C(=O)Cn2c(C(C)O)nc3ccccc32)c1C (centres undefined)
→ 3.3, -5.1, ., ., -41.0, 4.6, -8.9, i
- CCN(C(=O)CCS(=O)(=O)c1cccc2nsnc12)c1cccc(C)c1
→ -6.2, -0.4, 0.9, 3.8, 3.7, -2.2, -8.6, i
- NC(N)=N/N=C/c1ccc2cccc(OCc3ccccc3)c2n1
→ -21.0, 5.3, -1.7, -6.7, -28.9, 38.4, ., i
- O=C(Nc1ccc(S(=O)(=O)N2CCCCC2)cc1)C1CCCN(C(=O)c2ccc(Cl)cc2)C1 (centres undefined)
→ 7.0, -7.0, 1.3, -14.2, 34.1, -7.5, ., i
- CCc1ccc(NC(=O)CN(C)S(=O)(=O)c2ccc3[nH]c(=O)oc3c2)cc1
→ 2.4, -1.1, 1.5, -1.0, ., -13.6, -18.6, i
- O=C(CN1CCCCCCC1)N/N=C/c1ccc(F)cc1F
→ 10.3, 2.2, 0.6, 1.5, 14.6, 14.3, ., i
- Cn1c(CN2CCCC2)nc2cc(NC(=O)C3CCCCC3)ccc21
→ -5.5, -7.0, -2.4, 0.3, 22.6, -4.4, -15.5, i
- CCCCNc1nc2ccccc2[nH]1
→ 2.0, 0.7, 4.9, 8.3, ., -9.7, ., i
- CCC(C)(C(=O)Nc1c(C)cccc1C)N(C)C(=O)c1ccc2ccccc2n1 (centres undefined)
→ 1.0, 7.2, 0.2, 5.4, 5.1, -31.0, -8.0, i
- c1ccc(-n2c3ccccc3c3ccccc32)cc1
→ 0.1, 4.8, ., ., 0.6, 14.1, 14.9, i
- c1ccc2sc(Cc3nnc4n3CCCCC4)nc2c1
→ -1.0, 3.7, -1.6, 3.4, -4.6, -1.4, -13.4, i
- COc1ccccc1NC(=O)C1C2C=CC(C2)C1C(=O)NCc1cccnc1 (centres undefined)
→ -7.1, -8.8, 0.9, -0.2, 7.3, -10.7, -10.8, i
- Cc1cnc(NC(=O)C2CCC(C(C)(C)C)CC2)s1 (centres undefined)
→ 6.3, 1.1, -4.4, -2.3, 1.6, 9.8, -9.0, i
- COC(=O)c1cc(NC(=S)Nc2cc(Cl)cc(Cl)c2)cc(C(=O)OC)c1
→ 1.0, -0.8, -0.9, 3.1, -3.0, 28.6, ., .
- CCOC(=O)c1ccc(N2C=C(C(=O)OC)C(c3ccc(OC)c(O)c3)C(C(=O)OC)=C2)cc1
→ -2.0, -1.9, -5.7, -3.4, -5.5, 0.8, 4.6, i
- CCc1nnc2n1N=C(c1ccc(-c3cc(Cl)ccc3Cl)o1)CS2
→ 6.7, 24.6, -0.9, -5.4, -130.3, -0.3, -21.1, i
- Cc1[nH]c(-c2ccc(F)cc2)cc1C(=O)N1CCN(c2ccccc2F)CC1
→ 16.4, 12.8, 2.0, -1.7, 18.1, 4.7, 3.3, i
- C=COC(=O)CSc1nc(-c2cccs2)ccc1C#N
→ 11.5, 1.6, -8.0, 3.6, ., -3.5, -12.1, .
- CCOC(=O)N1CCN(C(=O)c2ccc(N(C)S(C)(=O)=O)cc2)CC1
→ -5.2, -9.0, 2.4, -0.3, ., -3.4, 7.9, i
- CC(=O)OC1=C(C#N)Cn2ccc3cccc1c32
→ 16.0, 1.9, ., ., ., -12.5, ., i
- CCOC(=O)c1cn2nc(Oc3ccc(C)cc3)ccc2n1
→ 2.5, -5.1, 0.7, -0.8, -8.8, -5.5, -11.5, i
- Cc1ccc(-n2nc3ccc(NC(=O)C(C)C)cc3n2)cc1
→ 7.9, -0.3, 0.4, 3.6, -75.9, 10.3, -14.2, i
- O=C(Cn1cc(C(F)(F)F)cc(Cl)c1=O)NCC1COc2ccccc2O1 (centres undefined)
→ ., ., -5.6, -0.6, 4.8, ., -15.3, .
- O=C(O)c1ccc(/C=N/Nc2nnnn2-c2ccccc2)cc1
→ -4.7, -3.9, 3.8, -1.3, 12.7, -7.6, ., i
- O=C(O)Cc1sc(NCCc2ccccc2)nc1-c1ccc(F)cc1
→ -18.6, 29.1, -4.4, 1.3, -2.5, -4.4, -0.2, i
- Nc1nc(NCCO)nc(NC2CCCCC2)c1[N+](=O)[O-]
→ -0.5, 5.1, -5.9, -4.0, -60.6, -2.0, -9.5, i
- CCC(=O)N1c2ccccc2-c2nnc(SC)nc2OC1c1ccc(OC)c(OC)c1 (centres undefined)
→ 2.1, 3.8, -4.4, 2.9, 23.2, -5.1, -12.3, i
- Oc1ccc(N=Nc2n[nH]c(-c3ccc(Cl)cc3)n2)cc1
→ -0.7, -3.8, -1.2, -2.7, ., 51.6, -9.0, i
- O=S(=O)(NCC(c1ccco1)N1CCCCC1)c1ccccc1C(F)(F)F (centres undefined)
→ ., ., 1.5, -2.4, 16.6, 15.7, -8.8, .
- CN(Cc1cccs1)CC(O)COCc1ccco1 (centres undefined)
→ -3.0, -7.6, -8.1, 3.3, -30.1, -5.5, -7.8, i
- COc1cc(CC(=O)Nc2sc3c(c2C(N)=O)CCCC3)cc(OC)c1OC
→ 2.0, -7.7, -4.7, -19.6, 25.3, -2.3, -17.9, i
- COc1ccc(CC(=O)O/N=C(\N)c2ccc(OC)cc2)cc1
→ 0.4, -3.3, 3.2, 0.7, -40.6, ., -23.9, i
- Cc1ccc(NC(=O)Cn2c(=O)cnc3ccccc32)cc1S(=O)(=O)N1CCOCC1
→ ., ., -2.4, -2.8, -3.4, -16.0, -13.2, .
- C=CCn1c(SCC(=O)NC(=O)c2cccc([N+](=O)[O-])c2)nnc1-c1ccccc1F
→ -1.5, -7.1, 4.6, 6.6, ., -5.9, ., i
- O=C(CCN1CCCCCC1)Nc1ccc2c(c1)OCCO2
→ -23.4, 1.5, 0.3, 3.8, -1.4, 3.2, -6.0, i
- CC(C)(CO)NS(=O)(=O)c1ccc2c(c1)C(=O)c1cc(S(=O)(=O)NC(C)(C)CO)ccc1-2
→ -11.1, -4.8, -7.1, -6.2, 4.5, 5.0, -11.1, i
- CNC(=O)c1c(NC(=O)C2=COCCO2)sc2c1CCCC2
→ -3.9, -8.8, -2.6, -1.7, 3.1, -7.6, -5.4, i
- CCOC(=O)CCP(=O)(O)C(O)c1ccc(OC)cc1 (centres undefined)
→ 11.4, -16.4, 7.4, 15.1, ., -6.7, -9.7, i
- COc1ccc(C(=O)OCC(=O)NCC2CCCO2)cc1S(=O)(=O)N1CCCc2ccccc21 (centres undefined)
→ 15.1, 7.6, 1.9, 0.5, 1.1, -1.8, ., i
- Cc1cccc(Cn2cnc3c(nnn3Cc3ccc(Cl)cc3)c2=O)c1
→ -1.2, 5.3, -1.0, 1.5, 59.7*, -4.7, 1.0, i
- CCOC(=O)c1sc2ccccc2c1OC(=O)c1ccccc1OC
→ 6.6, 1.0, -0.7, 1.4, -12.8, 37.1, -5.4, i
- O=C(NCCO)Nc1ccc2nsnc2c1
→ -6.1, 0.7, -1.5, 1.8, 1.2, 0.3, ., .
- COc1ccc(CC(N)c2csc(Nc3cnccn3)n2)cc1 (centres undefined)
→ ., ., -0.5, 2.8, -4.6, ., -8.0, .
- CSCCC1NC(=O)N(CC(=O)Nc2c(C(C)C)cccc2C(C)C)C1=O (centres undefined)
→ 1.3, -0.7, 1.6, 2.2, 4.9, -5.6, -13.3, i
- Cc1ccccc1N1CC(C(=O)Nc2ccncc2)CC1=O (centres undefined)
→ ., ., -3.4, 1.2, 17.0, -17.9, 12.9, i

5 entries drawn at random from those above:
Every second line gives: PABP FP inh, eIF4H FP inh, MT1-MMP act inh, MT1-MMP act inh RFP, Env fusion inh, CSC inhib, UUG fidelity, Rce1 inhib
- CNC(=O)c1c(NC(=O)C2=COCCO2)sc2c1CCCC2
→ -3.9, -8.8, -2.6, -1.7, 3.1, -7.6, -5.4, i
- COc1ccc(CC(=O)O/N=C(\N)c2ccc(OC)cc2)cc1
→ 0.4, -3.3, 3.2, 0.7, -40.6, ., -23.9, i
- COc1ccc(CC(N)c2csc(Nc3cnccn3)n2)cc1 (centres undefined)
→ ., ., -0.5, 2.8, -4.6, ., -8.0, .
- COc1ccc(C(=O)OCC(=O)NCC2CCCO2)cc1S(=O)(=O)N1CCCc2ccccc21 (centres undefined)
→ 15.1, 7.6, 1.9, 0.5, 1.1, -1.8, ., i
- CC(C)(CO)NS(=O)(=O)c1ccc2c(c1)C(=O)c1cc(S(=O)(=O)NC(C)(C)CO)ccc1-2
→ -11.1, -4.8, -7.1, -6.2, 4.5, 5.0, -11.1, i

(continued)
Every second line gives: PABP FP inh, eIF4H FP inh, MT1-MMP act inh, MT1-MMP act inh RFP, Env fusion inh, CSC inhib, UUG fidelity, Rce1 inhib
- COc1ccc(/C=C(\NC(=O)c2ccccc2)C(=O)N/N=C/c2sccc2C)cc1
→ 0.6, 0.4, -7.8, -5.8, ., -11.5, -7.1, i
- Cc1cc(=O)[nH]c(NN=C(CC(C)C)CC(C)C)n1
→ -8.7, 2.0, -1.5, -2.5, ., 5.9, -18.9, i
- O=C(c1cc(S(=O)(=O)N2CCOCC2)ccc1F)N1CCc2ccccc21
→ ., ., 1.7, -1.9, 25.3, -14.8, -13.2, .
- COC(=O)N(C)c1ccccc1C(=O)N1CCOCC1
→ 4.5, -1.6, 1.8, 2.3, -103.9, -0.5, -1.7, i

Screens deposited in PubChem BioAssay by several laboratories.
